GLA inh pH 4.5: alpha-galactosidase A (human) inhibition, pH 4.5. P06280. purified enzyme, 4-MU-alpha-Gal fluorescence, pH 4.5. activity change, negative = inhibition, % at 105 µM. 230,000 tested, under 10 active. AID 1467; inconclusive = small, poorly fitted or top-dose-only inhibition, or a rising curve; inactive = flat fitted curve, though single readings scatter; no compound was filed as active;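 further: 0% = full activity with enzyme and -100% = basal without enzyme; dose as in the result columns while the protocol names 77 µM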
miR-21 reporter: miR-21 reporter, rising signal | Potency, µM (doses to about 38.3 µM), for the others: at the highest dose reporter change, positive = more light | 340,000 tested, under 10 active | HeLa miR-21 FLuc reporter, luciferase, 48 h; active = well fitted rising curve with a large enough effect; inconclusive = small, poorly fitted or top-dose-only effect; inactive = no such curve, though single readings can be large or run the other way;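 further: % of control where 0% means no effect; miR-21 action dims this reporter so a rising signal means less miR-21 action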
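Compounds were titrated across several concentrations (up to approximately 40 uM) and incubated 48 hours with HeLa miR-21-FLuc reporter cells (miR-21 target sequence downstream of FLuc, endogenous miR-21). Readout was firefly luciferase luminescence after lytic detection reagent.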
Rango dissoc inh: inhibition of RanGTP-driven Rango-importin beta dissociation; Biochemical FRET Rango-importin beta, RanGTP-induced dissociation; AID 540253; O95149+P62826; actives 0.071% (n = 340,000); Potency, µM (titrated, usually from 46.1 µM), without a hit: at the top dose activity change, negative = inhibition; active means falling FRET ratio curve, often poorly fitted, with flat reads before Ran was added; inconclusive means other falling curves, or compound fluorescence or quenching; inactive means flat or rising ratio curve;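 further: potency means the concentration at half of the fitted maximal effect; % of control where 0% means no effect; nearly all actives have a fitted effect of over 45% in size; -100% = wells without RanGTP and RCC1; the record marks most hits as doubtful in a second field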
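Recombinant Rango FRET biosensor (EYFP–snurportin 1 IBB–cerulean CFP10) at 0.1 uM premixed with 0.25 uM importin beta in PBS, 1 mM DTT, 0.02% Tween-20, 0.1% BSA. Compound added 5 min; RanGTP-RCC1 (0.6 uM Ran, 2 mM GTP, 0.2 uM RCC1) then triggers release, read at 45 min.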
Rango-impB inh: inhibitors of Rango-importin beta complex formation | AID 540263 | Rango CFP/YFP FRET sensor + importin beta, 45 min | Potency, µM (highest dose often 92.2 µM), without a hit: at the highest dose inhibition of complex formation | actives 0.031% (n = 340,000) | Q14974; active = rising FRET ratio curve, often small or poorly fitted; inconclusive = mostly compound fluorescence or quenching in the first reads; inactive = flat curves in all reads;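 further: potency means the concentration at half of the fitted maximal effect; 0% = DMSO wells and 100% = buffer wells lacking importin beta; nearly all actives have a fitted effect of over 15% in size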
Target sequence (Q14974 whole entry, looked up): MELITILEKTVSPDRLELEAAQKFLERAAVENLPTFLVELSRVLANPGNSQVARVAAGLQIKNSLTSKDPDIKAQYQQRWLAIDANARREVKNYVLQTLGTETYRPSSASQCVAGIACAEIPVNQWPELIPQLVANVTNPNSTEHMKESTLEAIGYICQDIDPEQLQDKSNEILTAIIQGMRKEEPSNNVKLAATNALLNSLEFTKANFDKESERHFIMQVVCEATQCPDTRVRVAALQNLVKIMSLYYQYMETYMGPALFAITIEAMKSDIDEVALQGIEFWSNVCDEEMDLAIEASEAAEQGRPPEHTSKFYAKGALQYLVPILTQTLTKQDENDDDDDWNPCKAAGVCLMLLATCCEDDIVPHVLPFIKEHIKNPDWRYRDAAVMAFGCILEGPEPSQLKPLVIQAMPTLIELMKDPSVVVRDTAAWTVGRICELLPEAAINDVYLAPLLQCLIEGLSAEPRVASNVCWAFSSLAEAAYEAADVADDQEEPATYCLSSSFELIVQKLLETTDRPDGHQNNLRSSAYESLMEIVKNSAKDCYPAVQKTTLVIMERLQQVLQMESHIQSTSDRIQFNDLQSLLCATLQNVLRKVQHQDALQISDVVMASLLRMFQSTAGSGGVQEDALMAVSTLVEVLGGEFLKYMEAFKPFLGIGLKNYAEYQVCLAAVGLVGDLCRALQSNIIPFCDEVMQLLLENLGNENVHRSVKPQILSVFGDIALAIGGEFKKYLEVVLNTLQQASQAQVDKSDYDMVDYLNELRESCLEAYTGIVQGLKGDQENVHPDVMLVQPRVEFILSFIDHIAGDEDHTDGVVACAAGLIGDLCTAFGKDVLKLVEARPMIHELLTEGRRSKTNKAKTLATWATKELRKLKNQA
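FRET biosensor (snurportin 1 IBB flanked by EYFP and cerulean), 50 nM, with compound 5 min, then 0.125 microM importin beta in PBS, 1 mM DTT, 0.02% Tween-20, 0.1% BSA. CFP/YFP ratio read after 45 min at room temperature; pre-read flags interference.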
Starred values were filed as active, the others as inactive; ? = inconclusive; / = not tested or not shown; & = joins results of further samples; [ ] = dose if it differs, or a comment.

SMILES	GLA inh pH 4.5	miR-21 reporter	Rango dissoc inh	Rango-impB inh
CCn1c(O)c(C=NCc2cccs2)c(=O)n(CC)c1=S	-3	9%	-3%	-0.8%
CCc1ccc(C(=O)CSC2=C(C#N)C(c3ccco3)C(C(C)=O)=C(C)N2)cc1 (configuration not stated)	-1	-27%	/	/
COCC(=O)N1CCc2ccc(NC(=O)c3ccc(C(F)(F)F)cc3)cc2C1	/	/	6%	0.0%
NC(=O)c1oc2ccccc2c1NC(=O)c1ccc(F)cc1	-7	-1%	0%	4.2%
Cc1ccc(C)[n+](CC(=O)c2ccc(-c3ccccc3)cc2)c1	3	11%	2%	2.9%
COc1cccc(-c2noc(C3CCCN(S(=O)(=O)c4cccc(Cl)c4C)C3)n2)c1 (configuration not stated)	-6	-9%	-9%	-2.1%
COc1ccccc1Nc1nc(Cl)nc(NC(C)(C)C)n1	-7	1%	1%	-1.7%
COc1ccc(NC(=O)Cn2ccc(C(F)(F)F)n2)cc1S(=O)(=O)N1CCOCC1	/	/	3%	8.4%
CCOC(=O)C1(Cc2cccc(OC)c2)CCN(C(C)COC)CC1 (configuration not stated)	3	1%	-1%	0.0%
CN(C)CCSc1nnc2sc3ccccc3n12	-1	-11%	13%	2.2%
CCCCn1c(SCC(=O)c2ccc(OC)c(OC)c2)nc2cc(S(N)(=O)=O)ccc21	-1	0%	0%	-2.1%
CCN(CC)c1ccc(N=Nc2nn(C)c(C)c2[N+](=O)[O-])cc1	-4	-86%	-10%	3.5%
COc1ccc(NS(=O)(=O)c2cccc(NC(=O)NC3CCCCC3)c2)cc1	-1	12%	-5%	-0.4%
C#CCOCCOCCOCCNc1nc(N2CCN(C(=O)[C@H]([C@@H](C)O)n3cc(CCCCN)nn3)CC2)nc(N2CCN(C(=O)[C@H](C)n3cc(CCC(=O)O)nn3)CC2)n1	/	/	-5%	7.3%
CCOC(=O)Cc1nn(Cc2nc(-c3ccc(C#N)cc3)cs2)c(=O)c2ccccc12	-1	?	-8%	-2.1%
CCOC(=O)C1(CC2CC2)CCN(Cc2ccc3cccc(F)c3n2)CC1	0	8%	-2%	-0.8%
COc1ccc(C(=O)Nc2sc(C)c(-c3ccccc3)c2C#N)cc1OC	-1	-3%	2%	-0.6%
CC1(C)O[C@@H]2[C@@H](CO[C@@]3(COS(N)(=O)=O)OC(C)(C)O[C@@H]23)O1	-8	0%	/	/
CCN(CC)c1nc2ccccc2nc1C(C#N)C(=O)NCCCOC (configuration not stated)	2	1%	?	?
CCOc1ccccc1C(=O)Nc1cc(C(=O)NCC(C)C)ccc1Cl	1	-4%	/	/

Some of the entries so far, with the structure last:
GLA inh pH 4.5	miR-21 reporter	Rango dissoc inh	Rango-impB inh	canonical_smiles
-7	1%	1%	-1.7%	COc1ccccc1Nc1nc(Cl)nc(NC(C)(C)C)n1
/	/	-5%	7.3%	C#CCOCCOCCOCCNc1nc(N2CCN(C(=O)[C@H]([C@@H](C)O)n3cc(CCCCN)nn3)CC2)nc(N2CCN(C(=O)[C@H](C)n3cc(CCC(=O)O)nn3)CC2)n1
-8	0%	/	/	CC1(C)O[C@@H]2[C@@H](CO[C@@]3(COS(N)(=O)=O)OC(C)(C)O[C@@H]23)O1
/	/	6%	0.0%	COCC(=O)N1CCc2ccc(NC(=O)c3ccc(C(F)(F)F)cc3)cc2C1
-1	0%	0%	-2.1%	CCCCn1c(SCC(=O)c2ccc(OC)c(OC)c2)nc2cc(S(N)(=O)=O)ccc21
2	1%	?	?	CCN(CC)c1nc2ccccc2nc1C(C#N)C(=O)NCCCOC (configuration not stated)

More results follow.
SMILES	GLA inh pH 4.5	miR-21 reporter	Rango dissoc inh	Rango-impB inh
COc1ccc(C(=S)Nc2ccccc2)cc1	9	-53%	1%	1.6%
CCCCN(Cc1ccco1)C(=O)C1CCCN(c2ncnc3c2nc2n3CCCCC2)C1 (configuration not stated)	/	?	-8%	4.9%
O=C1CCc2cc(S(=O)(=O)NCCc3ccc(Cl)cc3)cc3c2N1CC3	/	/	5%	-0.3%
Cc1ccc(N/C=C/C(=O)C(C)(C)C)c(O)c1	-5	-26%	2%	0.7%
Cc1cccc(NC(=S)N(CCN(C)C)Cc2cc3cccc(C)c3[nH]c2=O)c1	-9	-5%	6%	-3.8%
O=C(/C=C/c1cccnc1)/C=C/c1cccnc1	8	?	-6%	-3.0%
COc1ccc(S(=O)(=O)N(C)CC(=O)NCc2ccccn2)cc1	/	2%	1%	-0.9%
COc1cc(/C=C/C(=O)OCC(=O)c2c(N)n(C)c(=O)n(C)c2=O)ccc1OC(F)F	-7	2%	-3%	-2.2%
CC(=O)COc1ncn(-c2ccccc2)n1	-9	-10%	-20%	-2.0%
COCCNC(=O)CCCn1c(=O)c2cc(OC)c(OC)cc2n(CC(=O)c2cccc(OC)c2)c1=O	11	3%	23%	2.5%
O=C(c1cccnc1)N1C2C=CC(C2)C1(C(F)(F)F)C(F)(F)F (configuration not stated)	14	-7%	0%	-2.9%
CCNc1ccc(C2(O)C(=O)c3ccccc3C2=O)cc1	?	0%	1%	0.9%
C=CCc1ccccc1OCC(O)CN1CCN(c2ccccc2F)CC1 (configuration not stated)	-2	-7%	-3%	1.2%
COC(=O)C1CCN(C2=C(NS(=O)(=O)c3ccc(Cl)cc3)C(=O)c3ccccc3C2=O)CC1	-3	-5%	9%	1.5%
Cc1ccc(-n2nc(C)c3c2NC2=C(C(=O)CC(C)(C)C2)C3c2ccccc2OCC(=O)O)cc1 (configuration not stated)	-2	6%	0%	0.8%
Cc1cc(=O)[nH]c(-n2nc(C)cc2C)n1	0	1%	-14%	-8.1%
Cc1ccc(-n2c(C)cc(C)c(C#N)c2=O)cc1Cl	-6	-6%	-6%	0.9%
O=C(NCCc1ccccc1F)/C(=C/c1cccnc1)NC(=O)c1ccccc1	6	-14%	0%	0.2%
CS(=O)(=O)NCCNc1ccc(C(F)(F)F)cc1[N+](=O)[O-]	6	0%	10%	-1.0%
Cc1ccc(C(=O)NNC(=O)c2ccc3ccccc3c2O)cc1	/	-4%	1%	4.0%
Cc1ccc(C(C)C)c(OCC(=O)N2CCOCC2)c1	1	-5%	-7%	0.0%
COc1cc([N+](=O)[O-])ccc1N/C=C/C(=O)c1cccs1	2	-7%	?	?
COc1ccc(N(C(C)C(=O)N/N=C(\C)C(C)(C)C)S(C)(=O)=O)cc1 (configuration not stated)	4[21.1 µM]	1%	15%	1.7%
COCCN(C(=O)COC(=O)CC1CCCCC1)c1c(N)n(Cc2ccccc2)c(=O)[nH]c1=O	/	-6%	25%	1.0%
O=C(CSc1nc2ccccc2n1CC(=O)N1CCCC1)Nc1ccc2c(c1)OCO2	2	0%	-5%	-3.0%
O=C(Nc1nnc(-c2ccccc2)o1)C1CCCN1S(=O)(=O)c1cccs1 (configuration not stated)	/	/	-7%	0.7%
Cc1cnc(C(=O)OCC(=O)c2cccc3ccccc23)cn1	/	/	0%	-3.5%
CCCCCCc1c(C)nc(-n2[nH]c(C)c(CCO)c2=O)[nH]c1=O	4	-4%	-1%	4.0%
Cc1noc(C)c1-c1nnc(-c2ccc(C(F)(F)F)cc2)o1	-4	-11%	4%	0.6%
Cc1c(C(=O)O)sc(=S)n1CCOc1ccccc1	0	-10%	10%	6.2%
Cc1cc(NC(=O)c2cccs2)ncc1NC(=O)c1cccc(F)c1	5	-45%	1%	0.3%
CCCCN(C)CCCNC(=O)c1cc(Nc2ccc(OC)c(OC)c2)nc2ccccc12	/	-9%	9%	-1.1%
CN(Cc1ccccc1)C(=O)c1cc(S(=O)(=O)N2CCOCC2)cn1C	/	-1%	0%	3.8%
COc1ccc(C(=O)Nc2nnc(Cc3ccccc3)s2)c(OC)c1	/	-26%	-3%	-0.7%
CC1(C)CC(=O)C2=C(C1)NC(=O)CC2c1cccc(F)c1 (configuration not stated)	-11	3%	-22%	0.2%
COc1ccc(C2CC(c3cccs3)=NN2C(=S)Nc2ccccc2)cc1OC (configuration not stated)	-2	-15%	2%	3.2%
Cc1ccc(CN(C(=O)c2ccco2)C(C(=O)NC2CCCC2)c2ccc(N3CCOCC3)cc2)cc1 (configuration not stated)	-15	-1%	-16%	-1.1%
O=C(CSc1nnc(Cn2c(=O)sc3ccccc32)n1-c1ccccc1)N1CCCCCC1	0	1%	-5%	-0.4%
Cc1ccc(NC(=O)c2cccc(-n3cnnn3)c2)cc1Cl	/	/	24%	-0.9%
O=C(NS(=O)(=O)Oc1cccc(F)c1)OC[C@@H]1CCCN2CCCCC12 (some centres not stated)	/	5%	13%	-1.2%
CCOC(=O)c1sc(N2N=C(C)/C(=C\c3ccc(OCC(=O)OC)cc3)C2=O)nc1C	3	12%	-2%	4.5%
CCOC(=O)c1ccc(NC(=O)C2(c3ccccc3)CCCC2)cc1	1	5%	12%	3.0%
CC(C)COc1ccc(C(=O)OCC(=O)NCCC2=CCCCC2)cc1	/	/	-1%	-1.6%
CCOc1c(Cl)cc(C(=O)Nc2cccc(C(=O)O)c2)cc1Cl	-5	-58%	4%	3.3%
Cc1cc(=O)n2nc(N3CCCC(C(=O)N4CCN(C)CC4)C3)sc2n1 (configuration not stated)	-20	-1%	-4%	0.1%
CC(C)(C)S(=O)(=O)c1cnc2c(S(=O)(=O)c3ccccc3)cnn2c1N	-1	-2%	14%	1.2%
COc1ccc(S(=O)(=O)N2CCOC2CNC(=O)C(=O)NCc2cccnc2)cc1C (configuration not stated)	-4	-5%	-20%	-1.1%
COc1ccc(OCCOc2ccc(S(=O)(=O)N3CCCC3)cc2C(N)=O)cc1	/	/	4%	-2.1%
O=C(Nc1cccnc1)c1cc(-c2ccc(Cl)cc2)on1	0	-5%&-14%	-18%	4.2%
COc1ccc(OC)c(C(=O)COC(=O)c2ccc([N+](=O)[O-])o2)c1	/	/	-10%	-0.3%
Cc1cc(C)c(C)c(S(=O)(=O)NCC(=O)Nc2ccc(F)cc2)c1C	/	8%	0%	0.8%
COc1cc(CNCCCN2CCOCC2)c(Br)cc1OCC(=O)Nc1ccccc1C	6	-20%	4%	3.2%
C#CCn1cc(/C=C2\NC(=O)NC2=O)c2ccccc21	/	-25%	-11%	-0.6%
CCOCCc1c(O)nc(SC)[nH]c1=O	-4	-3%	-19%	4.7%
COc1ccc(OCCNS(=O)(=O)c2cccc([N+](=O)[O-])c2)cc1	-2	-4%	36%	7.4%
COc1ccc(Cl)c(S(=O)(=O)N2CCCC2)c1	-7	-12%	2%	-4.7%
Cc1nn(-c2ccccc2)c2nc(N)c(C#N)c(-c3ccc(O)c(O)c3)c12	/	-2%	-11%	-1.3%
COc1ccc(C2CC(=O)C(C=NCCN3CCN(C(=S)Nc4ccccc4)CC3)=C(O)C2)cc1 (configuration not stated)	-4	1%	8%	-1.7%
N#CC(CC(=O)c1ccc(Cl)cc1)c1ccccc1 (configuration not stated)	/	/	-7%	-0.2%
Cc1ccc(NC(=O)C2CCN(S(=O)(=O)c3ccc4c(c3)NC(=O)C(C)S4)CC2)cc1Cl (configuration not stated)	/	?	-5%	-0.1%

Other results
SMILES	GLA inh pH 4.5	miR-21 reporter	Rango dissoc inh	Rango-impB inh
COc1ccc(OC)c(NC(=O)c2ccccc2SC)c1	4	-13%	-5%	-2.8%
CCOc1cccc(CN2CCN(Cc3ccc(C)o3)C(CCO)C2)c1O (configuration not stated)	0	-1%	9%	-2.1%
CCCCCn1c(=O)[nH]c2cc(C(=O)NCCCN3CCCCC3CC)ccc2c1=O (configuration not stated)	/	-2%	-9%	-4.5%
Cc1c([N+](=O)[O-])c([N+](=O)[O-])nn1CC(=O)N1CCCCC1	-6	-5%	-14%	-0.5%
CC(C)[C@H](NC(=O)c1ccccc1F)C(=O)OCC(=O)NC(=O)NC1CCCCC1	/	/	1%	1.2%
COc1cccc(CN(Cc2cccnc2)S(=O)(=O)c2ccc(-n3cnnn3)c(C)c2)c1OC	0	-8%	9%	0.0%
COC(=O)c1ccccc1NC(=O)c1ccc(COc2ccc(C)c(C)c2)o1	-1	-6%	0%	-0.8%

Source: PubChem BioAssay (National Center for Advancing Translational Sciences (NCATS))

These rows are one share of the data. The share of hits here may be higher or lower than overall.
